From PubChem
Bead autofluor – counter-screen for toxin protease inhibitors: compound fluorescence. compound autofluorescence counterscreen, microsphere flow cytometry; active compounds read high. fluorescence intensity (concentration not given with the values). actives 3.1% (n = 360,000);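 active = at least 3 SD above the mean of all compounds, about 16000 in these data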;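 note: 100 nL of 1 mM stock went into each well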
Starred values were filed as active, the others as inactive. An excerpt (hit frequency here may not be typical).

SMILES	Bead autofluor
CC1(C(=O)NS(=O)(=O)Cc2ccccc2C(F)(F)F)CCN1C(=O)c1cccc(F)c1 (stereo unspecified)	2836
O=CNc1cc(-c2ccsc2)cn2c(-c3ccccc3)cnc12	4018
COC1OC(c2ccccc2)=C(c2ccc(C(N)=O)cc2)c2ccc(F)cc21 (stereo unspecified)	4387
O=C(CN1CCN(C(=O)c2ccco2)CC1)Nc1cc(S(=O)(=O)N2CCCC2)ccc1Cl	4737
CCOC(=O)C1=C(C#N)C(C(=O)OCC)c2ncccc21 (stereo unspecified)	2870
CCN(CC)C(=O)c1ccc2sc([C@H]3C[C@H](O)[C@@H](CO)O3)nc2c1	3495
O=C(Nc1nccs1)c1csc([C@H]2C[C@H](O)[C@@H](CO)O2)n1	3856
CN(C)c1cccc(CNC(=O)c2csc([C@@H]3C[C@H](O)[C@@H](CO)O3)n2)c1	3154
O=C(/C=C/c1ccc(F)cc1)Nc1cc(S(=O)(=O)N2CCOCC2)ccc1N1CCOCC1	4330
C[C@@H]1CN([C@H](C)CO)S(=O)(=O)c2ccc(-c3cccc(C#N)c3)cc2O[C@H]1CN(C)C(=O)Nc1cc(F)ccc1F	3096
CC1=C(C(=O)Nc2cc(C(=O)N3CCN(c4ccc(Cl)cc4)CC3)ccc2C)SCCO1	2794
CSc1ccc(CNC(=O)C2CCC(=O)N(CC3CCCCC3)C2)cc1 (stereo unspecified)	3918
COC(=O)[C@]12CCCCC=C1N(Cc1ccco1)C(=O)[C@H](CC(=O)N1CCC(c3ccccc3)CC1)C2	5799
COc1cccc(S(=O)(=O)N(C)C[C@H]2Oc3ncc(Br)cc3C(=O)N([C@H](C)CO)C[C@H]2C)c1	3494
COC(=O)c1ccc(N2C(c3cc(OC)cc(OC)c3)=Cc3ccc(-c4cccnc4)cc3C2CC(=O)C2CC2)cc1 (stereo unspecified)	4992
COc1ccc2oc(C(=O)OCC(=O)NC3CCS(=O)(=O)C3)c(C)c2c1 (stereo unspecified)	3004
CCc1nc2c(OCC(=O)c3ccc(Cl)cc3Cl)cccn2c1N(C)C(=O)c1ccncc1	3587
CCOC(=O)CNC(=O)N1Cc2cc(N3CCOCC3)ccc2-n2nncc2C1	5393
Cc1cccc(S(=O)(=O)NC(=O)C2(C)CCN2C(=O)c2ccccc2CCc2ccccc2)c1 (stereo unspecified)	3827
COc1ccc(CC(=O)Nc2cc(S(=O)(=O)N3CCOCC3)ccc2N2CCCC2)cc1	3652
COCCNC(=O)C1(C)CCCN(Cc2cc(-c3ccccc3)nn2C)C1 (stereo unspecified)	2953
CCNC(=O)C1(C)CCN(C(=O)c2ccc(N(C)C)cc2)C1 (stereo unspecified)	3840
CSc1nc(=O)n(CCC#N)nc1SC	5457
Cc1noc(C)c1NC(=O)N(C)C[C@@H]1Oc2ncc(Br)cc2C(=O)N([C@@H](C)CO)C[C@@H]1C	3424
O=C(NCc1ccc(F)cc1)c1cc(C2CCCCN2C(=O)OCCF)on1 (stereo unspecified)	3278
CCc1nc2ccc(C(=O)Nc3cc(-c4ccccc4)ccc3OC)cn2c1N(C)Cc1nccs1	3495
CCC(CC)C(=O)N(C)c1c(C)nc2c(OCc3ccccc3C)cccn12	3352
Brc1ccc([C@H]2C=C[C@H]3CCCN4CC[C@H]2[C@@H]3[C@]42CO2)cc1	5977
Cc1cc(C)cc(NC(=O)C2COc3ccccc3O2)c1 (stereo unspecified)	3338
NC(=O)c1cnc(Cc2c[nH]c3ccccc23)c(I)c1	3535
CC(C)C(N)c1csc(Nc2ccccn2)n1 (stereo unspecified)	3766
COc1ccc(CCCNC(=O)C2Cc3c(-c4ccc(NC(C)=O)cc4)ccnc3O2)cc1 (stereo unspecified)	3753
Cc1cccc(NC(=O)CSc2nnc3ccc(-c4cccnc4)nn23)c1	3393
Cc1ccc(Cc2c(-c3cccc(Cl)c3)nc3ccc(Cl)cn23)cc1	6610
COc1ccc(-c2ccc(N3C(c4cc(OC)cc(OC)c4)=Cc4ccc(OC)cc4C3CC(C)=O)cc2)cc1 (stereo unspecified)	5554
C[C@]1(CC/C(=C/CO)CO)[C@H](C=O)CC[C@@]23COC(=O)C2=CCC[C@@H]31	4117
Cc1cc(F)ccc1-c1cc(C(=O)Nc2ccc(F)cc2)[nH]n1	2841
Nc1ccc2c(c1)[nH]c(=O)c1cc(N)ccc12	3527
O=C1NC(Cc2ccccc2)c2nc3ccc(Cl)cc3c(=O)n2-c2ncccc21 (stereo unspecified)	3086
Cc1cc(C(=O)N2CCCC2(C)C(=O)O)c(C)o1 (stereo unspecified)	4082
CCC(CC)C(=O)N(C)c1c(C)nc2c(OCc3ccccc3C(=O)OC)cccn12	3905
O=C(CC[C@H]1O[C@@H](n2ccc(=O)[nH]c2=O)[C@H](O)[C@@H]1O)N[C@H](Cc1ccccc1)C(=O)NCCCN1CCCC1=O	4307
COc1cccc(-c2cnc3c(c2)C(=O)N([C@H](C)CO)C[C@@H](C)[C@H](CN(C)C(=O)Nc2ccccc2F)O3)c1	3754
CC(C)(C)CNC(=O)C1(C)CCN1C(=O)c1ccccc1CCc1ccccc1 (stereo unspecified)	2984
COc1ccc(C(=O)N2CCOCC2c2cc(C(=O)NCc3ccccc3)no2)cc1 (stereo unspecified)	2999
COc1ccc(CCNC(=O)Nc2ccc3c(c2)c(=O)n(C)n3C)cc1OC	3458
C/C=C/c1cccc(-c2nc(C(=O)N3CCCCC3)cc3c2[C@H](CCO)N(C(=O)NC(C)C)C3)c1	6579
OCCCNc1ncnc2c1ncn2[C@H]1CN(Cc2ccc3c(c2)OCO3)C[C@@H](CO)O1	3696
O=C(NN=Cc1ccc2c(c1)OCO2)c1ccc([N+](=O)[O-])cc1	6502
COCCNC(=O)C1(C)Cc2c(-c3cccc(C(F)(F)F)c3)ccnc2O1 (stereo unspecified)	3795
Cc1ccn2c(CC(C)(C)C)c(-c3ccc(F)cc3)nc2c1	4092
CCCCCC(=O)N1C[C@H](O)[C@@H](n2cc(C3CC3)nn2)C[C@@H]1c1ccc(C)cc1	3682
COc1cccc(C#CC2=CC(=O)C[C@H](c3ccc(F)cc3)C2)c1	3483
O=S1(=O)CC(N2CCN(CC3CC3)CC2)CN1CCc1ccccc1 (stereo unspecified)	5157
OC(c1ccc(F)c(F)c1)c1nc(-c2cncnc2)cs1 (stereo unspecified)	3942
COc1cc(C#N)c(NC(=S)N2CCN(C(=O)c3ccco3)CC2)cc1OC	6254
CCOc1ccc2nc(N/C(N)=N/S(=O)(=O)c3ccc(C)cc3)nc(C)c2c1	3163
CC(C)(C)c1ccc(CC(=O)N2CCC2(C)C(=O)NCc2cccc3ccccc23)cc1 (stereo unspecified)	2815
Cc1cc(C)c2nc3sc(=Cc4ccc(-c5ccccc5C(=O)O)o4)c(=O)n3c2c1	3590
COc1ccc(S(=O)(=O)NC(=O)C2(C)CCN2C(=O)Cc2cc(C)cc(C)c2)cc1 (stereo unspecified)	2998

Single values from the entries so far:
For Bead autofluor, Cc1ccn2c(CC(C)(C)C)c(-c3ccc(F)cc3)nc2c1 is listed with 4092
For Bead autofluor, COc1ccc(S(=O)(=O)NC(=O)C2(C)CCN2C(=O)Cc2cc(C)cc(C)c2)cc1 (stereo unspecified) is listed with 2998
For Bead autofluor, CCCCCC(=O)N1C[C@H](O)[C@@H](n2cc(C3CC3)nn2)C[C@@H]1c1ccc(C)cc1 is listed with 3682
For Bead autofluor, CC(C)(C)c1ccc(CC(=O)N2CCC2(C)C(=O)NCc2cccc3ccccc23)cc1 (stereo unspecified) is listed with 2815

(further entries)
SMILES	Bead autofluor
COc1cccc(-c2cnc(C(O)c3ccc(F)c(F)c3)[nH]2)c1 (stereo unspecified)	3507
O=C(C[C@@H]1C[C@@H]2c3cc(NC(=O)C4CCC4)ccc3O[C@@H]2[C@@H](CO)O1)NCc1ccc(Cl)cc1	3087
Cc1ccccc1S(=O)(=O)NC(=O)C1(C)CCN1C(=O)Cc1cccs1 (stereo unspecified)	4164
O=c1c(OCc2ccccc2)cccn1Cc1ccccc1	3871
CC1=C(C(=O)N2CCOCC2)CC(CC(=O)NCCc2ccccn2)C(=O)N1CCC1=CCCCC1 (stereo unspecified)	5958
O=C(NCc1cccnc1)c1cc(C2CCCN(C(=O)c3ccccn3)C2)on1 (stereo unspecified)	4133
CCCC(=O)N1CCC1(C)C(=O)Nc1ccc2c(c1)CCN2C(C)=O (stereo unspecified)	3591
CCN(CC)C(=O)C1CCCN(C(=O)c2ccc3nc(-c4cccc(OC)c4)oc3c2)C1 (stereo unspecified)	3748
Cc1ccc(S(=O)(=O)NCN2C(=O)c3ccccc3C2=O)cc1	3591
C[C@@H]1CN([C@H](C)CO)C(=O)CCCn2cc(nn2)CO[C@H]1CN(C)C(=O)Nc1cccc(F)c1	3847
Cc1ccc(CN2C(=O)CCC2(C)c2nnnn2-c2c(C)cccc2C)cc1 (stereo unspecified)	6115
CCCS(=O)(=O)NC(=O)C1(C)CCCN(C(=O)c2c(F)cccc2F)C1 (stereo unspecified)	3692
CCc1nc2c(OCc3ccc(C(=O)OC)cc3)cccn2c1N(C)C(=O)CC(C)C	3961
CC(C)(C)n1nnnc1C(c1ccccc1)N1CCN(C/C=C/c2ccccc2)CC1 (stereo unspecified)	4272
Cn1c(NCCc2ccncc2)nc2cc(-c3ccccc3)sc2c1=O	3605
CCCCNc1c(-c2ccc(F)cc2)nc2nc(C)cc(C)n12	7080
C(=NN=Cc1c[nH]c2ccccc12)c1c[nH]c2ccccc12	3939
C[C@H](NC(=O)[C@@H]1CCCN1C(=O)OC(C)(C)C)c1ccccc1	5714
O=C(CCN1C(=O)NC2(CCCC2)C1=O)Nc1ccc(Sc2ccc(Br)cc2)cc1	4135
CC(C)C[C@H]1CN(CCCC[C@@H]2CNC(=O)C(=O)N2CCc2ccccc2)C(=O)C(=O)N1CCc1ccc(O)cc1	6017
CCc1nc2c(OCc3ccc(C#N)cc3)cccn2c1N(C)C(=O)C(C)C	2951
CN(Cc1ccccc1)C(=O)c1csc([C@@H]2O[C@H](CO)[C@@H](O)[C@H]2O)n1	4209
COc1ccc(CC(N)c2csc(NC(=O)c3cc(C(C)(C)C)nn3Cc3ccccc3)n2)cc1 (stereo unspecified)	2901
CCNC(=O)C1(C)CCN(C(=O)c2cc(C)oc2C)C1 (stereo unspecified)	4132
C=CCNC(=O)c1cc2cc(Cl)ccc2nc1N	5363
Cc1ccc(S(=O)(=O)NC(=O)C2(C)CCN2C(=O)C2CC2)cc1 (stereo unspecified)	3862
COc1ccc(/C=C2\SC(=O)N(CCCC(=O)Nc3ccc(C(=O)O)cc3)C2=O)cc1	3989
CNc1nc(NCc2ccccc2)c2sccc2n1	3740
C[C@@H]1CN([C@@H](C)CO)C(=O)c2cc(C#CC3CCCCC3)cnc2O[C@@H]1CN(C)S(=O)(=O)c1ccc(F)cc1	3860
CCN(CC)CCN(C)C(c1ccnc2ccccc12)c1nnnn1-c1ccc2c(c1)OCCO2 (stereo unspecified)	4671
CN1CCn2cnc(C(=O)N3CCN(c4ccccc4)CC3)c2C1=O	3412
CC1(Cc2ccc(Cl)c(Cl)c2)C(=O)Nc2c(Cl)ccc(Cl)c21 (stereo unspecified)	3699
Cn1c(=O)c2cc(NC(=O)NCc3ccc(F)cc3)ccc2n1Cc1cccc(C(F)(F)F)c1	3476
CSc1ncnc2c1ncn2CCCNCC1CCCCC1	3578
CCc1ccc(N2CC(C(=O)N3CCN(S(=O)(=O)c4cccc(F)c4)CC3)CC2=O)cc1 (stereo unspecified)	3879
CC(C)Cc1nnc(NC(=O)C2CCCN(C(=O)c3ccc(Cl)cc3)C2)s1 (stereo unspecified)	4212
CCOC(=O)N1CCN(S(=O)(=O)N2CCCC(C(=O)NCc3ccccc3OCC)C2)CC1 (stereo unspecified)	2917
CCOc1ccc(CCN2C(=S)N([C@@H](CC(C)C)CN3CCCC3CN3C(=S)NC[C@@H]3Cc3ccccc3)C[C@@H]2CC(C)C)cc1 (stereo partly specified)	6138
CC(=O)O[C@@H]1C[C@H](c2ccccc2)OC(=O)CCCCC1=O	6480
COCCNC(=O)C1CCCN(Cc2cccc(C#N)c2)CC1 (stereo unspecified)	3899
CC[C@H](C)[C@@H]1NC(=O)CNC(=O)c2csc(n2)[C@H](C(C)(C)O)OC(=O)C(C)(C)[C@H](CCCC(C)(Cl)Cl)OC(=O)c2csc1n2	5900
CCCS(=O)(=O)NC(=O)C1(C)CCCN(C(=O)c2cc(F)ccc2C)C1 (stereo unspecified)	2888
O=C1CCC(OCc2ccccc2)CCN1CC[C@@H](Sc1ccccc1)c1ccccc1 (stereo partly specified)	6480
Cc1ccn2c(Cc3ccccc3)c(-c3ccc(Br)cc3)nc2c1	3024
CCCCN(C=O)c1c(CC)nc2ccc(C(=O)N3CCN(C)CC3)cn12	2989

By substructure, the entries above containing a COOH group (3)
SMILES	Bead autofluor
Cc1cc(C(=O)N2CCCC2(C)C(=O)O)c(C)o1 (stereo unspecified)	4082
Cc1cc(C)c2nc3sc(=Cc4ccc(-c5ccccc5C(=O)O)o4)c(=O)n3c2c1	3590
COc1ccc(/C=C2\SC(=O)N(CCCC(=O)Nc3ccc(C(=O)O)cc3)C2=O)cc1	3989

The listing picks up with the 4 entries that preceded the break.
SMILES	Bead autofluor
CCCS(=O)(=O)NC(=O)C1(C)CCCN(C(=O)c2cc(F)ccc2C)C1 (stereo unspecified)	2888
O=C1CCC(OCc2ccccc2)CCN1CC[C@@H](Sc1ccccc1)c1ccccc1 (stereo partly specified)	6480
Cc1ccn2c(Cc3ccccc3)c(-c3ccc(Br)cc3)nc2c1	3024
CCCCN(C=O)c1c(CC)nc2ccc(C(=O)N3CCN(C)CC3)cn12	2989
CC(C)[C@@H]1CC2=C(C(=O)OC(C)(C)O2)[C@H](CCc2ccccc2)O1	6003
Cc1ccc([C@H]2C[C@H](O)[C@@H](n3cc(C4CC4)nn3)CN2Cc2cccs2)cc1	3141
COc1cc(CN2C(=O)C(C)ON=C2c2cccs2)cc(OC)c1 (stereo unspecified)	5040
Cc1ccc(NC(=O)COC(=O)CN2CCSC2=O)cc1Cl	3861
CCCCNC(=O)C(=O)Nc1ccc2c(c1)N(S(=O)(=O)c1cccs1)CCC2	3868
Cc1cc(=O)n(Nc2ccccc2)c(O)c1C#N	3561
